# Screening results deposited in PubChem by several laboratories.
# Mtb hypoxia inh – reduces hypoxia-regulated biosensor signal in M. tuberculosis | 0.1% of 300,000 active | M. tuberculosis hypoxia-regulated fluorescent reporter, fluorescence | fluorescence inhibition, % (concentration not given with the values);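 active = 35 to 45% if threefold the growth effect, above 45% if 1.5-fold the growth effect; inactive = the rest, general growth blockers included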;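 note: wells of about 50 µL received 100 nL stock; 0% = vehicle wells and 100% = reference inhibitor wells; whole bacteria with a GFP reporter of the hypoxia response; strong numbers were not always called active; many hits fall short of the cut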
# RN4220 kill – kills Staphylococcus aureus RN4220 | S. aureus RN4220 growth, OD600, 16 h | inhibition, % (test concentration not listed) | 0.33% of 330,000 active | AID 1259311;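 active = z-score of -3 or lower and OD600 up to 0.18 on both plates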;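 note: plate controls were untreated cells for no effect and reference antibiotic for full effect; stock transfer was 100 nL into about 80 µL; one replicate is shown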
# Autofluor counter – flagged as autofluorescent in microsphere protease counterscreen; fluorescence intensity (no concentration beside the values); AID 624483; 3.1% of 360,000 active; compound autofluorescence counterscreen, microsphere flow cytometry; hits give high values;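 active = at least 3 SD above the mean of all compounds, about 16000 in these data; inconclusive = too few beads counted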;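 note: 100 nL of 1 mM stock went into each well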
# PrP 5UTR inh – suppresses PrP 5' UTR mRNA reporter expression. AID 488862. cell-based PrP 5' UTR mRNA reporter, plate reader. inhibition, % (test concentration not listed). 0.35% of 340,000 active;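 active = every replicate at 50% or more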;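 note: 0 = median of the neutral control wells; tested in H4 reporter cells; numbers are from one replicate; inactives centre near -14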
# BJeLR lethal – kills HRASV12-expressing BJeLR cells; BJeLR (HRASV12) viability, CellTiter-Glo ATP luminescence, 48 h; reference of the scale not given here; inhibition, % (no concentration beside the values); 0.17% of 300,000 active;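 active = replicate mean above 50%; inconclusive = above 50% but judged a plate artefact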;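 note: 50 nL library stock added to about 25 µL; numbers are from one replicate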
# Sa ugtP lethal – kills S. aureus RN4220 lacking UgtP. AID 1259309. S. aureus RN4220 ugtP deletion, OD600 growth, 16 h; some inactives read as strong as hits. growth inhibition, % (no concentration beside the values). 0.54% of 330,000 active;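 active = z-score under -3 and OD600 up to 0.15 on both plates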;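 note: plate controls were untreated wells for no effect and antibiotic for full effect; wells of about 80 µL received 100 nL stock; the first replicate is given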
# Mtb hypoxia inh growth – recorded beside Mtb hypoxia inh, whose call it bears; growth inhibition, %; measured here: M. tuberculosis growth (absorbance);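 0% = vehicle and 100% = reference antibiotic; read after six days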
# Starred values were filed as active, the others as inactive; ? = inconclusive; . = not tested or not shown.
SMILES,Mtb hypoxia inh,Mtb hypoxia inh growth,RN4220 kill,Autofluor counter,PrP 5UTR inh,BJeLR lethal,Sa ugtP lethal
Cc1cc(C)c2c(c1C)C(=O)CCC2,17.0,8.0,1.1,3599,-18.1,.,-1.3
COc1ccc(CNC(=O)CSc2cc(=O)n(C)c3ccccc23)cc1,15.8,3.2,6.8,2687,-7.9,3.9,2.8
CSc1nnc(-c2ccc(NC(=O)CCc3ccccc3)cc2)n1C,5.1,5.1,0.6,9471,-32.8,2.1,2.5
O=C(CSc1ccccc1)NCc1cccnc1,5.5,20.9,1.7,3530,-7.6,-8.1,-2.8
COc1ccc(C2C(C(=O)N3CCN(c4ccccc4)CC3)c3ccccc3C(=O)N2C)cc1 (configuration not stated),-2.6,-0.6,-1.9,3811,-11.0,-7.3,-9.3
O=C(COC(=O)CC1CC2CCC1C2)Nc1ccccc1Cl (configuration not stated),5.4,-8.8,2.5,3812,-3.8,.,4.7
COc1ccc2c(Cn3cnc4cc([N+](=O)[O-])ccc4c3=O)cc(=O)oc2c1,-5.4,2.9,2.6,3421,-16.0,29.1,9.7
O=C(NCCCc1ccccc1)C1CC1,3.9,-2.0,-1.7,6203,.,-9.9,5.8
CC(C)(C)C1CCc2onc(C(=O)Nc3cccc(O)c3)c2C1 (configuration not stated),5.5,7.4,8.2,10617,-9.4,8.8,-12.0
COc1ccccc1Oc1coc2c(CN3CCN(C)CC3)c(O)ccc2c1=O,-0.4,5.5,1.3,11454,0.0,-5.1,1.4
N#Cc1c2n(c3c(-c4ccccc4)ncnc13)CCC2,.,.,2.7,3647,-13.3,1.7,1.4
COc1ccc2[nH]c3nc(SCC(=O)Nc4cccc(NC(C)=O)c4)nnc3c2c1,16.3,-5.4,5.8,.,1.3,-12.2,1.4
COCCCN(CC(=O)Nc1ccc(N2CCOCC2)cc1)S(=O)(=O)c1ccc(C)cc1,12.5,-5.9,2.2,4060,-17.2,-7.6,0.1
CCc1ccc(/C=N/NC(=O)c2cc(-c3cccc([N+](=O)[O-])c3)n[nH]2)cc1,.,.,.,3055,-6.7,-0.1,.
CCOc1ccc(C(=O)Nc2cccc(-c3nc4cccnc4o3)c2)cc1Cl,-7.6,-1.7,31.7,8317,-10.2,-3.6,18.4
O=C(NN=Cc1ccc(F)cc1)c1ccccc1NS(=O)(=O)c1cccs1,3.6,-4.6,3.4,8579,-15.7,.,1.8
C=C1C(=O)OC2CC(C)C3C=CC(=O)[C@@]3(C)C(O)C12 (some centres not stated),.,.,10.9,.,.,.,-1.3
COc1ccc(-c2cc3nc(C)cc(-c4ccc(OC)cc4)n3n2)cc1,20.8,7.5,0.0,4021,-17.6,1.2,3.1
Cc1noc(C)c1COc1cccc(C(=O)N2CCN(C/C=C/c3ccccc3)CC2)c1,3.8,15.2,-0.9,9397,-25.8,-21.3,3.0
Fc1ccc(OCc2cc(-c3ccccc3)no2)cc1,17.2,1.6,5.7,3878,-117.1,-1.1,15.9
O=C(CSc1nnc2ccc(-c3cccnc3)nn12)Nc1ccc(F)cc1,-14.0,-2.5,0.4,.,3.8,-12.3,6.2
COc1cc(NC(=O)CC(C)C)ccc1NC(=O)c1ccco1,1.4,5.5,1.3,10922,-83.0,8.9,-7.0
CC(=O)NCC(=O)N1CCCC(C(=O)c2ccc3c4c(cccc24)CC3)C1 (configuration not stated),-1.4,7.2,3.5,2062,-17.7,-5.0,-6.4
Cc1c(NC(=O)C23CC4CC(CC(C)(C4)C2)C3)c(=O)n(-c2ccccc2)n1C,-74.0,-18.4,4.9,4213,-10.5,-2.7,-1.4
COc1ccccc1-c1n[nH]c2c1C(C)CCC2C(C)C (configuration not stated),-1.4,5.1,4.8,.,.,.,-1.8
Cc1cc(C)cc(NC(=O)C2CCC(CNC(=O)[C@@H]3Cc4ccccc4CN3)CC2)c1 (some centres not stated),-0.5,-0.4,-9.1,4105,-13.7,6.0,-5.5
CN(CC(=O)NCc1ccncc1)S(=O)(=O)c1cc(Cl)ccc1Cl,-7.7,9.6,-0.9,5462,0.7,-11.7,-3.7
COc1ccc(S(=O)(=O)N2CCN(C(=O)c3cc(C)oc3C)CC2)cc1OC,14.8,7.5,0.0,3730,-19.7,.,0.0
CSC(C(=O)c1cc2ccccc2o1)c1ccccc1 (configuration not stated),.,.,.,2988,-28.5,2.9,.
CCOC(=O)c1ccc(NS(=O)(=O)c2ccc3c(c2)oc(=O)n3C)cc1,.,.,0.1,5697,-10.6,-6.7,0.3
O=C(NC(=C(Cl)Cl)S(=O)(=O)c1ccc(Cl)cc1)c1ccccc1,-0.3,-0.3,10.3,4224,-31.8,0.4,5.6
O=C(O)c1ccc(C=NNC(=O)c2ccccc2NS(=O)(=O)c2cccs2)cc1,-2.2,-2.6,7.1,3347,-11.2,.,2.4
O=C(COc1ccc(F)cc1Br)NCCCN1CCCC1=O,-2.4,-0.7,7.9,2712,-15.7,.,11.1
COc1ccccc1C(=O)NCCC(=O)Nc1ccc(OC(F)(F)F)cc1,-2.9,-14.3,3.6,6018,-8.9,3.2,19.9
Cc1ccc(S(=O)(=O)NCCC(=O)Nc2ccc(Cl)c(Cl)c2)cc1C,-11.7,-12.0,-2.3,2026,-9.6,-1.0,-27.7
O=C(NN=Cc1cc(Cl)cc([N+](=O)[O-])c1O)C(O)(c1ccccc1)c1ccccc1,3.5,-6.9,5.2,.,.,.,-1.9
CC(=O)N1CCN(C(=O)c2ccc(NS(=O)(=O)c3ccc4[nH]c(=O)[nH]c4c3)cc2)CC1,-1.5,-5.4,0.6,6467,-9.0,0.2,-1.9
O=C(c1cccc(Br)c1)N1CCN(c2ccc(N3CCOCC3)nn2)CC1,6.8,0.5,2.0,?,-12.0,-14.6,2.0
Cn1cc(C=Nn2cnc3scc(-c4ccc(Cl)cc4)c3c2=O)c2ccccc21,6.6,13.2,2.4,.,.,.,5.3
O=[N+]([O-])c1ccc(Cl)c(C=Nn2c(C3CCCCC3)n[nH]c2=S)c1,5.4,0.5,2.6,.,.,.,-7.1
CC1(c2ccccc2)NC(=O)N(CC(=O)Nc2ccc(N3CCOCC3)cc2)C1=O (configuration not stated),-5.8,-1.2,3.2,2953,-2.5,.,1.5
Cc1c(NC(=O)COc2ccc(C(C)C)cc2)c(=O)n(-c2ccccc2)n1C,-0.3,1.5,0.3,5389,-2.2,-3.4,3.2
CC(C)Sc1nc2c(c(=O)[nH]c(=O)n2C)n1Cc1ccccc1,4.1,5.1,-4.5,3751,-6.8,-1.1,8.3
CCOC(=O)N1CCN(C(=O)CNC(=O)c2nn(-c3ccc(OC)c(Cl)c3)c(=O)c3ccccc23)CC1,-1.3,-2.3,4.2,3834,-19.1,-1.6,-3.9
O=C(CSc1nccn1-c1ccc(Cl)cc1)NCc1ccc2c(c1)OCO2,5.3,5.7,3.1,5986,-25.2,1.2,15.9
C[C@H](CO)N1C[C@H](C)[C@@H](CN(C)C(=O)Nc2ccc(C(F)(F)F)cc2)Oc2ccc(NC(=O)NC3CCCCC3)cc2C1=O,-4.0,2.9,0.0,3950,-12.9,.,4.6
CC(C)CC1NC(=O)N(CC(=O)Nc2ccc3c(c2)OCCO3)C1=O (configuration not stated),13.7,-0.3,7.5,?,-13.7,.,6.2
Cc1cccc(C(=O)NCC(=O)OCc2nc(N)nc(Nc3ccccc3C)n2)c1,0.8,7.2,3.8,3575,0.2,.,6.3
O=C(NN1CCCCC1)c1ccc(COc2ccc(Cl)cc2)cc1,9.4,2.8,4.0,2638,-24.2,1.8,4.3
CN(C)CCOC(=O)C12CC3(C)CC(C)(CC(C)(C3)C1)C2,2.7,9.3,4.2,9866,-29.7,-4.5,-8.7
O=C(/C=C/c1ccc(Cl)cc1Cl)Nc1cccc(S(=O)(=O)NC2=NCCCCC2)c1,-7.5,-3.5,-4.3,8642,-9.2,8.2,-23.3
COc1ccccc1C(C)Nc1ccc(S(=O)(=O)N2CCN(C)CC2)cc1[N+](=O)[O-] (configuration not stated),-8.7,3.4,0.4,?,.,.,0.8
C=CCn1c(NCc2ccccc2)nc2ccccc21,8.8,4.0,1.0,6295,0.0,-21.0,7.1
CCOC(=O)C1CCN(C(=O)Cn2cc(C(=O)C3CC3)c3ccccc32)CC1,11.5,5.2,1.9,4333,-4.0,3.5,2.1
O=C(NN=Cc1c[nH]c2ccccc12)c1ccc([N+](=O)[O-])cc1Cl,0.4,-7.3,2.2,.,.,.,7.7
O=C(NCCN1C(=O)S/C(=C\c2ccccc2F)C1=O)C1CCN(S(=O)(=O)c2cccs2)CC1,-5.4,0.6,8.1,9225,-36.6,4.3,-7.8
CN(C)C(CNC(=O)c1ccc(NS(=O)(=O)c2cccc([N+](=O)[O-])c2)cc1)c1ccco1 (configuration not stated),5.0,5.4,3.5,5699,-13.4,2.5,5.4
CCNC(=O)CCSc1nc2cc(Cl)ccc2o1,21.2,10.4,-9.9,3474,-12.8,4.6,-4.8
Cc1noc(C)c1CN1C(=O)NC2(CCCCCCC2)C1=O,.,.,4.3,4260,-14.1,-2.9,1.3
O=c1[nH]nc(N=Nc2c(O)[nH]c3ccc(F)cc23)c(=O)[nH]1,3.6,2.9,-2.3,3832,-9.7,.,-3.0
# Next section
SMILES,Mtb hypoxia inh,Mtb hypoxia inh growth,RN4220 kill,Autofluor counter,PrP 5UTR inh,BJeLR lethal,Sa ugtP lethal
COc1ccc(C2c3c(oc4ccc(Cl)cc4c3=O)C(=O)N2Cc2ccco2)cc1OC (configuration not stated),-0.4,0.0,-13.2,.,.,1.2,6.9
O=C(Cn1cc(C(=O)c2cccs2)c2ccccc21)NCC1CCCO1 (configuration not stated),7.5,-6.4,2.5,9093,-5.9,5.1,9.8
O=C(CN1CCN(Cc2cccc(F)c2)CC1)NCc1ccccc1,-4.7,-5.4,-3.4,4556,4.7,-0.7,2.9
Cc1c(C(=O)N2CC3(CC(c4cccc(NC(=O)CC(c5ccccc5)c5ccccc5)c4)=NO3)C[C@@H]2C(N)=O)cc([N+](=O)[O-])cc1[N+](=O)[O-] (some centres not stated),.,.,.,3933,-12.7,-1.6,.
N#Cc1cn(OCc2ccccc2)c(=O)[nH]c1=O,11.3,6.5,6.1,2018,-11.4,1.4,11.6
Cc1nnc(SC(C)C(=O)Nc2sc3c(c2C#N)CCCC3)[nH]c1=O (configuration not stated),12.5,1.5,2.6,2937,-24.6,-1.1,12.4
CN(C)S(=O)(=O)c1cccc(NC(=O)c2ccc(-n3cncn3)c([N+](=O)[O-])c2)c1,4.8,6.4,-0.5,6407,-13.1,3.0,9.8
CSc1cccc(NC(N)=S)c1,.,.,-1.1,3703,-9.9,0.4,5.2
O/N=C(\c1ccccc1)c1nccc2ccccc12,.,.,.,5725,-25.7,-6.4,.
CCOC(=O)c1ccc(N=Cc2nc3ccccc3n2C)cc1,.,.,.,10527,-17.1,-0.5,.
COc1ccc(Cl)cc1-c1n[nH]c(=S)n1Cc1ccccc1,-12.2,5.0,0.9,3752,-22.4,-5.2,-5.6
O=C(CSc1ccccc1F)NC1CCS(=O)(=O)C1 (configuration not stated),2.2,4.0,6.0,4424,-15.8,5.3,-0.2
Cc1ccc(-c2noc(CSc3nnnn3C3CCCCC3)n2)cc1,-6.6,8.9,-0.8,5497,-21.3,-1.2,-6.7
Cn1c(N)c(C(=O)COC(=O)c2ccc(Cl)c(S(=O)(=O)N3CCCCC3)c2)c(=O)n(C)c1=O,11.1,9.1,4.8,2035,-19.4,18.9,1.5
Nc1nc(SCc2ccc(F)cc2)n[nH]1,17.5,8.5,1.6,3434,-20.2,1.9,11.2
CC1CN(CCCOc2ccccc2-c2ccccc2)CC(C)O1 (configuration not stated),4.7,5.2,-0.2,3332,-10.3,-26.5,0.7
